ALR inh: inhibitors of human sulfhydryl oxidase ALR; P55789; purified ALR, DTT oxidation, H2O2 HRP-luminol luminescence; inhibition, % (concentration not given with the values); 290,000 tested, 3.8% active; AID 485317;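 active = mean and each replicate at 75% or more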;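 also: stock transfer was 7.5 nL into about 7.5 µL; 0% = neutral wells and 100% = wells with inactivated enzyme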
Target sequence (P55789 whole entry, looked up): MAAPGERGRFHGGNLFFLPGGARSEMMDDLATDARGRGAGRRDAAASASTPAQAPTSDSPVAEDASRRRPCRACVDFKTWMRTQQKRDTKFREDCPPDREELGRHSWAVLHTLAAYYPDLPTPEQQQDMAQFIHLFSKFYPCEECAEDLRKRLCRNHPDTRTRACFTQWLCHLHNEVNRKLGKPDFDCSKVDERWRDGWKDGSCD
LANA-H2B inh: blocks KSHV LANA binding to histone H2A/H2B; Q9QR71; cell-free LANA-H2A/H2B peptide, fluorescence polarization; inhibition, % (test concentration not listed); 320,000 tested, 0.6% active; in the data active = inhibition mostly above about 10%, no sharp cut-off; inactive = mostly below about 6.7%;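 also: stock transfer was 7.5 nL into about 10 µL; 0% = median of vehicle wells and 100% = median of positive control wells; one replicate is shown; the record names a cut of 25% in any replicate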
E coli growth: blocks Escherichia coli growth; AID 1053175; 330,000 tested, 0.21% active; OD600, 23 h; stronger effect = lower value; OD600 absorbance (concentration not given with the values);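 active = OD600 absorbance below the run mean of sample wells minus 3.6 SD, in any replicate, cut at about 0.56 in these data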;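 also: stock transfer was 300 nL into about 60 µL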
FGF22 binding: FGF22 (human) thermal shift binding | AID 651658 | 340,000 tested, 1.5% active | calls only at 9.99 µM | recombinant FGF22 thermal shift, SYPRO orange fluorescence; percent of sucrose octasulfate shift, DMSO zero | Q9HCT0;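 active = melting point raised past a set limit in the mean and every replicate; three in four hits are not shown here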
Target sequence (Q9HCT0 whole entry, looked up): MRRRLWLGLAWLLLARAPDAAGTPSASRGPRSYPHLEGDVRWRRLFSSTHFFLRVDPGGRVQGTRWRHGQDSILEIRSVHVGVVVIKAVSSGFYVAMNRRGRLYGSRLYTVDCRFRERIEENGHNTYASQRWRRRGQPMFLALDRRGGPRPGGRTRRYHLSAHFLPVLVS
HNF4A DNA FP: change in binding of human HNF4 alpha to DNA; activity change, % at 10 µM; P41235; 360,000 tested, 0.3% active; HNF4a-FITC DNA binding, fluorescence polarization, 1 h; AID 1224865; in the data active = activity change above about 30%, passing the limit was not always enough;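 also: controls were the assay level and a saturating level of protein; the project sought stronger binding though the title names inhibitors; some compounds called inactive have numbers as strong as hits; positive values seem to mean higher polarization but the record does not say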
Beta2AR agonist: activates human beta-2 adrenergic receptor causing internalization; 340,000 tested, 0.43% active; response, % (no concentration beside the values); Am2.2-beta2AR cells, FAP receptor internalization, flow cytometry; reference of the scale not given here; P07550; AID 504454;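 active = response above a set limit, near 3 SD of response in nonfluorescent compounds, cut at about 42% in these data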;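 also: stock transfer was 100 nL into about 11 µL; a reference agonist was the positive control; negative values mostly stem from fluorescent compounds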
Target sequence (P07550 whole entry, looked up): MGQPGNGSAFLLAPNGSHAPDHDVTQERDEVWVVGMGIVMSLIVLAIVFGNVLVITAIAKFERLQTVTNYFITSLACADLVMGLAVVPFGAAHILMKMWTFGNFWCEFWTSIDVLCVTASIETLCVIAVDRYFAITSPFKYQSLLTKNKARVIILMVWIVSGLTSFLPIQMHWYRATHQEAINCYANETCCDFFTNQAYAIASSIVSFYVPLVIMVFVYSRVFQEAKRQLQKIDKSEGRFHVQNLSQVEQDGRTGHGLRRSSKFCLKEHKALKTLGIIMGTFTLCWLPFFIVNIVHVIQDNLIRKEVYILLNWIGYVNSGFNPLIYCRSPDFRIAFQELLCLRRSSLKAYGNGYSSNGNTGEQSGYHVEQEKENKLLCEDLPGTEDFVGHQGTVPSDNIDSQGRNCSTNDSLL
UCH37 inh: blocks the human deubiquitinase UCH37; AID 588478; Q9Y5K5; 330,000 tested, 0.33% active; purified proteasome/UCH37, Ub-AMC cleavage fluorescence; inhibition, % (concentration not given with the values);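 active = mean of two replicates above 20%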;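 also: 0% = compound-free wells with enzyme and 100% = wells lacking proteasome; stock transfer was 100 nL into about 20 µL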
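Material: human UCH37 enzyme supplied as purified proteasome complex. Measure: % inhibition of Ub-AMC cleavage fluorescence. Medium: pH 7.4 Tris-HCl (50 mM) with ovalbumin, ATP-MgCl2, DTT. Times: 30 min preincubation with enzyme, 25 min cleavage at room temperature. Detection: AMC fluorescence intensity at 355/460 nm.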
Active calls of the source: *; & = joins results of further samples. A portion of the library (hit frequency here may not be typical).

O=C(CCCCCN1C(=O)c2ccccc2C1=O)Oc1ccc2c3c(c(=O)oc2c1)CCC3 was read as ALR inh 3.6, LANA-H2B inh -15.0, E coli growth 0.703, HNF4A DNA FP -0.9, Beta2AR agonist -7.2 and UCH37 inh -299.8.
COC(=O)c1ccc(COC(=O)C2CCN(S(=O)(=O)c3ccc(C)c(C)c3)CC2)o1 was read as ALR inh -5.3, LANA-H2B inh 0.7, E coli growth 0.688, FGF22 binding inactive, HNF4A DNA FP -2.4, Beta2AR agonist -5.3 and UCH37 inh 2.4.
For C/C(CCc1ccccc1)=N\NC(=S)NCCc1ccccc1 the results were ALR inh 0.5, LANA-H2B inh -2.2, FGF22 binding inactive, HNF4A DNA FP 0.7 and Beta2AR agonist 2.9.
O=C(Oc1c(Br)cc(Br)c2cccnc12)N1CCCCC1 was read as ALR inh -14.2, LANA-H2B inh 1.6, E coli growth 0.624, FGF22 binding inactive, HNF4A DNA FP 1.1, Beta2AR agonist 0.1 and UCH37 inh 1.7.
CNc1nc(Sc2cccc(C(F)(F)F)c2)cc(C(F)(F)F)n1 was read as ALR inh 0.4, LANA-H2B inh -12.1, E coli growth 0.725, HNF4A DNA FP -0.5, Beta2AR agonist -0.7 and UCH37 inh -11.0.
For Cc1ccc(Cn2c(CCC(=O)O)nc3ncccc3c2=O)cc1 the results were ALR inh -3.3, LANA-H2B inh 0.5, E coli growth 0.68, FGF22 binding inactive, HNF4A DNA FP 1.8, Beta2AR agonist 1.2 and UCH37 inh 3.3.
`CCc1ccc(NC(=O)Cn2nnc(C(=O)NCc3ccco3)c2N)cc1` gave ALR inh -3.4, LANA-H2B inh -2.1, E coli growth 0.672, FGF22 binding inactive, HNF4A DNA FP 0.2, Beta2AR agonist -0.6 and UCH37 inh 4.2.
`CCOC(=O)c1ccc(NC(=S)N2CCN(c3ccccn3)CC2)cc1` gave ALR inh -22.8, LANA-H2B inh 7.8, E coli growth 0.694, FGF22 binding inactive, HNF4A DNA FP 1.6, Beta2AR agonist 5.4 and UCH37 inh 0.8.
Cc1ccccc1NS(=O)(=O)c1ccc(C(=O)N2CCN(S(=O)(=O)c3ccccc3)CC2)cc1 was read as ALR inh -0.8, LANA-H2B inh 1.7, E coli growth 0.703, FGF22 binding inactive, HNF4A DNA FP -2.0, Beta2AR agonist 11.5 and UCH37 inh 3.0.
`CCCCOC(=O)CCc1c(C)[nH]c(=S)[nH]c1=O` gave ALR inh 51.2, LANA-H2B inh 2.1, E coli growth 0.684, HNF4A DNA FP 4.6, Beta2AR agonist 17.6 and UCH37 inh 0.5.

3 entries out of the list, sorted by length of the SMILES, descending:
`CCc1ccc(NC(=O)Cn2nnc(C(=O)NCc3ccco3)c2N)cc1` gave ALR inh -3.4, LANA-H2B inh -2.1, E coli growth 0.672, FGF22 binding inactive, HNF4A DNA FP 0.2, Beta2AR agonist -0.6 and UCH37 inh 4.2.
O=C(Oc1c(Br)cc(Br)c2cccnc12)N1CCCCC1 was read as ALR inh -14.2, LANA-H2B inh 1.6, E coli growth 0.624, FGF22 binding inactive, HNF4A DNA FP 1.1, Beta2AR agonist 0.1 and UCH37 inh 1.7.
For C/C(CCc1ccccc1)=N\NC(=S)NCCc1ccccc1 the results were ALR inh 0.5, LANA-H2B inh -2.2, FGF22 binding inactive, HNF4A DNA FP 0.7 and Beta2AR agonist 2.9.

The listing continues.
`Cc1cccc(-c2nc(CN3CCCC(C(=O)NC4CCCC4)C3)c(C)o2)c1` (centres undefined) gave ALR inh -3.5, LANA-H2B inh -8.8, E coli growth 0.671, HNF4A DNA FP 2.5, Beta2AR agonist 32.6 and UCH37 inh 0.2.
Screening COc1ccc(C(=O)NNC(=O)CN2CCC(n3nnc4cc(F)ccc43)CC2)cc1 returned ALR inh 0.0, LANA-H2B inh 0.3, E coli growth 0.633, FGF22 binding inactive, HNF4A DNA FP 0.3, Beta2AR agonist -1.5 and UCH37 inh 2.5.
For CCC(C)(C)C1CCC2(CC1)NC(=O)N(CC(=O)NCCc1c[nH]c3ccccc13)C2=O (centres undefined) the results were ALR inh -1.3, LANA-H2B inh -0.8, E coli growth 0.665, FGF22 binding inactive, HNF4A DNA FP -1.4, Beta2AR agonist 14.9 and UCH37 inh 4.2.
`O=C(OCCN(C1=NS(=O)(=O)c2ccccc21)c1ccc(Cl)cc1)c1ccco1` gave LANA-H2B inh 6.5, E coli growth 0.691, HNF4A DNA FP 1.3, Beta2AR agonist 0.7 and UCH37 inh 5.3.
For CCC(C)NC(=O)C1CCCN(S(=O)(=O)c2ccc3c(c2)CC(C)N3C(=O)C2CC2)C1 (centres undefined) the results were ALR inh 0.0, LANA-H2B inh -7.2, E coli growth 0.712, FGF22 binding inactive, HNF4A DNA FP 1.6, Beta2AR agonist 3.1 and UCH37 inh 7.9.
Screening COc1cc(NC(=S)N2CCN(C(c3ccccc3)c3ccccc3)CC2)cc(OC)c1 returned ALR inh -4.5, LANA-H2B inh -0.3, E coli growth 0.765, HNF4A DNA FP 4.2, Beta2AR agonist 6.9 and UCH37 inh 3.4.
O=C(Nc1nc2c(Cl)ccc(Cl)c2s1)c1ccco1 was read as ALR inh -14.5, LANA-H2B inh -2.3, E coli growth 0.74, FGF22 binding inactive, HNF4A DNA FP 5.7, Beta2AR agonist 3.4 and UCH37 inh 2.6.
Screening CCCN(Cc1cc(=O)[nH]c2ccccc12)C(=O)CC returned ALR inh -3.4, LANA-H2B inh 7.1, E coli growth 0.692, FGF22 binding inactive, HNF4A DNA FP -2.9, Beta2AR agonist -11.0 and UCH37 inh -2.1.
CCc1ccc2c(CN3CCC(C(=O)OC)CC3)cc(=O)oc2c1 was read as LANA-H2B inh 6.0, E coli growth 0.672, FGF22 binding inactive, HNF4A DNA FP 83.7*, Beta2AR agonist -5.9 and UCH37 inh 0.2.
Screening COc1ccc(/C(C)=N\NS(=O)(=O)c2ccccc2)cc1OC returned ALR inh 19.4, LANA-H2B inh 4.6, FGF22 binding inactive, HNF4A DNA FP 2.0 and Beta2AR agonist -0.8.
CCn1nc(C)c(CNC(=O)c2cc(COc3ccc(F)cc3Cl)on2)c1C was read as ALR inh -8.4, LANA-H2B inh 1.0, E coli growth 0.662, HNF4A DNA FP 1.2, Beta2AR agonist -6.5 and UCH37 inh 1.8.
For COc1ccc(OC)c(S(=O)(=O)Nc2cc(C(=O)O)ccc2N2CC3CC(C2)c2cccc(=O)n2C3)c1 (centres undefined) the results were ALR inh 1.2, LANA-H2B inh -1.2, E coli growth 0.685, FGF22 binding inactive, HNF4A DNA FP 0.4, Beta2AR agonist -3.0 and UCH37 inh 0.1.
`NC(=O)C1CCN(C(=O)CC2C(=O)NCCN2Cc2cccc(Oc3ccccc3)c2)CC1` (centres undefined) gave ALR inh -2.6, LANA-H2B inh -4.1, E coli growth 0.673, FGF22 binding inactive, HNF4A DNA FP 5.2, Beta2AR agonist -15.5 and UCH37 inh -10.9.
`Cc1nc(N2CCC(C)CC2)c2c(C)c(C(=O)O)sc2n1` gave LANA-H2B inh 2.9, E coli growth 0.635, HNF4A DNA FP 3.2, Beta2AR agonist 10.1 and UCH37 inh 6.6.
CCC(=O)N/N=C(\C)CC(=O)Nc1ccc2c(c1)OCCO2 was read as LANA-H2B inh -6.0, FGF22 binding inactive, HNF4A DNA FP -0.5 and Beta2AR agonist -4.2.
O=C(COC(=O)COc1cccc(F)c1)NCCC1=CCCCC1 was read as ALR inh 1.8, LANA-H2B inh 0.5, E coli growth 0.657, FGF22 binding inactive, HNF4A DNA FP -3.8, Beta2AR agonist 4.9 and UCH37 inh 6.4.
CCC1SC2=NC(C)=C(C(=O)OC)C(c3ccc(C(=O)OC)cc3)N2C1=O (centres undefined) was read as ALR inh -5.0, LANA-H2B inh -3.3, E coli growth 0.705, HNF4A DNA FP -0.8, Beta2AR agonist 1.1 and UCH37 inh 6.8.
Screening C=CCN=c1sc(C(=O)OC)cc(=O)n1CC=C returned ALR inh 1.7, LANA-H2B inh -1.9, E coli growth 0.706, HNF4A DNA FP -7.7, Beta2AR agonist 5.3 and UCH37 inh 0.7.
CC(=O)c1cccc(Nc2cc(C)nc3ccccc23)c1 was read as ALR inh -3.7, LANA-H2B inh 1.9, E coli growth 0.669, FGF22 binding inactive, HNF4A DNA FP -1.1, Beta2AR agonist -11.5 and UCH37 inh 5.9.
Screening FC(F)(F)c1cc(-c2ccccc2)nc(NCc2cccs2)n1 returned ALR inh -1.1, LANA-H2B inh -6.8, E coli growth 0.703, FGF22 binding inactive, HNF4A DNA FP -0.4, Beta2AR agonist -22.4 and UCH37 inh -19.5.
`O=C(CC1C(=O)NCCN1C(=O)Nc1ccc(F)cc1)Nc1cc(Cl)ccc1Cl` (centres undefined) gave ALR inh -3.7, LANA-H2B inh 0.3, E coli growth 0.645, FGF22 binding inactive, HNF4A DNA FP -0.4, Beta2AR agonist 2.4 and UCH37 inh 5.1.
Screening Nc1ccccc1C(=O)N1O[C@@H]2C=C[C@H]1C2 returned E coli growth 0.699, FGF22 binding inactive, HNF4A DNA FP 0.2, Beta2AR agonist 0.7 and UCH37 inh -13.8.
Screening Cc1ccc(CN2CC(C(=O)NNC(=O)Cn3ccc(C(F)(F)F)n3)CC2=O)cc1 (centres undefined) returned ALR inh -1.2, LANA-H2B inh -6.9, E coli growth 0.635, FGF22 binding inactive, HNF4A DNA FP 3.8, Beta2AR agonist -7.7 and UCH37 inh 2.0.
For CCc1ccccc1NC(=O)CSc1nc2ccccc2nc1N1CCOCC1 the results were ALR inh -7.3, LANA-H2B inh -0.6, E coli growth 0.757, FGF22 binding inactive, HNF4A DNA FP 3.4, Beta2AR agonist -4.2 and UCH37 inh -5.8.
`CCOc1ccccc1OCCCNCc1ccccc1` gave ALR inh -9.7, LANA-H2B inh 2.1, E coli growth 0.636, FGF22 binding inactive, HNF4A DNA FP 4.7, Beta2AR agonist -4.1 and UCH37 inh -0.8.
Fc1ccc(CN2CCN(c3ncnc4scc(-c5ccc(F)cc5)c34)CC2)cc1 was read as ALR inh -6.4, LANA-H2B inh -0.2, E coli growth 0.671, FGF22 binding inactive, HNF4A DNA FP 0.0, Beta2AR agonist 15.0 and UCH37 inh 1.6.
For CCn1c(SCC(=O)NNC(=S)Nc2ccccc2)nnc1-c1ccc(Cl)cc1 the results were ALR inh 63.6, LANA-H2B inh 5.8, E coli growth 0.669, FGF22 binding inactive, HNF4A DNA FP 1.7, Beta2AR agonist 8.5 and UCH37 inh 1.9.
Cc1c(N=C/C=C2/N(C)c3ccccc3C2(C)C)c(=O)n(-c2ccccc2)n1C was read as ALR inh 99.1*, LANA-H2B inh -0.7, E coli growth 0.692&0.7, FGF22 binding inactive, HNF4A DNA FP 1.9&16.2, Beta2AR agonist -16.9&-11.9 and UCH37 inh 9.8&12.4.
Screening CCN(CC)CCCN(C(C)=O)c1nc(-c2cc(OC)ccc2OC)cs1 returned ALR inh -36.5, LANA-H2B inh 1.3, E coli growth 0.65, HNF4A DNA FP 2.0, Beta2AR agonist 2.5 and UCH37 inh 1.4.
COc1cccc(CN2CCN(Cc3ccc(O)cc3)CC2CCO)c1 (centres undefined) was read as ALR inh -0.8, LANA-H2B inh -1.0, E coli growth 0.701, FGF22 binding inactive, HNF4A DNA FP 0.5, Beta2AR agonist -2.4 and UCH37 inh 3.9.
Screening OCCN=Cc1c(O)[nH]c2ccccc12 returned ALR inh 99.1*, LANA-H2B inh -5.4, E coli growth 0.74, HNF4A DNA FP -3.8, Beta2AR agonist 7.2 and UCH37 inh -0.9.
`CN(C)/N=C/C=C1\CCC/C(=C\c2ccc(F)c(F)c2)C1=O` gave ALR inh -11.5, LANA-H2B inh 11.7, FGF22 binding inactive, HNF4A DNA FP 1.8 and Beta2AR agonist 2.9.
CCC(=O)[C@@]1(C)[C@H](C)C[C@H]2[C@@H]3CCC4=CC(=O)C=C[C@]4(C)[C@H]3[C@@H](O)C[C@@]21C was read as ALR inh -7.1, LANA-H2B inh -4.0, FGF22 binding inactive, HNF4A DNA FP -0.4, Beta2AR agonist 2.3 and UCH37 inh 3.8.

Bioassay records as filed in PubChem.
